HIV Env fusion: inhibitors of HIV-1 Env-driven cell-cell fusion, primary screen, HeLa-JRFL effector, CEM21 target cells, luciferase; 360,000 compounds, 1.1% hits; inhibition, % at 12.3 µM;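 active = mean replicate inhibition score of at least 50 and every replicate individually at or above 50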;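 note: 0% = plate neutral controls and 100% = maraviroc near 300 nM; one replicate is shown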
MT1-MMP act inh: blockers of MT1-MMP proenzyme processing, primary screen, HT1080 RFP-PRO-GFP cells, GFP/RFP fluorescence | 360,000 compounds, 0.061% hits | AID 651647, 2012 | GFP/RFP ratio fluorescence, overnight; percent of plate control window, DMSO zero | Matrix metalloproteinase-14 (Homo sapiens), P50281 | GFP/RFP ratio change, % at 20 µM;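 active = GFP/RFP ratio change of at least 30% with cell ATP level not reduced by more than half and red fluorescence within 50% of control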; note: strong numbers were not always called active
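Assay system: HT1080 RFP-PRO-GFP cells. Benchmarks: DMSO vehicle wells and RFP-L50D-GFP reporter cell wells. Times: overnight cell settling, then overnight compound exposure, 37 °C, 5% CO2. Compound: 20 µM single dose, 1% DMSO. Read-out basis: GFP/RFP fluorescence ratio.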
PABP FP inh: PABP poly(A) RNA binding inhibitors, primary screen, biochemical, fluorescence polarization, uHTS. inhibition, % at 35 µM. 290,000 compounds, 1% hits. Polyadenylate-binding protein 1 (Homo sapiens), P11940. AID 2014, 2009;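 active = 50% or more with normal probe brightness, or confirmed in later tests; about a fifth of its hits are not listed in these tables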;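 note: calls also rest on retests at 20 µM and on dose response follow-up; controls were probe without protein and protein plus probe with vehicle; some compounds called inactive have numbers as strong as hits; many hits fall short of the cut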
Target sequence (P11940 whole entry, looked up): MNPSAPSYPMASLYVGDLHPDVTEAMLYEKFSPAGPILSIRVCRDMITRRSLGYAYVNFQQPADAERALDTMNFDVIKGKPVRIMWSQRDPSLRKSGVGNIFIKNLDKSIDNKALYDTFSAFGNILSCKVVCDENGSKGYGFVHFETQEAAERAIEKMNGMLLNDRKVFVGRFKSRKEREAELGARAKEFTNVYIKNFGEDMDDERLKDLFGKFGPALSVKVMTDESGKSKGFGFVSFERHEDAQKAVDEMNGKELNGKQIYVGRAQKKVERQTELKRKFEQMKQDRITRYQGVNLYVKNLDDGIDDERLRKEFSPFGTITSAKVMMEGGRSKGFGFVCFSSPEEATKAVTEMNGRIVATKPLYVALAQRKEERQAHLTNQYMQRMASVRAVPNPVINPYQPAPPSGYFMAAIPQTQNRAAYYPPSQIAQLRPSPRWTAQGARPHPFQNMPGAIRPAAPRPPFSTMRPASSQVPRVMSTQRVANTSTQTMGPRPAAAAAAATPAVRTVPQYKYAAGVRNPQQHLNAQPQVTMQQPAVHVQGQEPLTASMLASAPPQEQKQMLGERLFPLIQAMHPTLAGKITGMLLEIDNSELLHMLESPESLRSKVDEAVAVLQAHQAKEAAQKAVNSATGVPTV
CSC inhib: cancer stem cell viability inhibitors, primary screen, luminescence; cancer stem cell-like cells viability; inhibition, % at 7.5 µM; 300,000 compounds, 1.1% hits; AID 2717, 2010;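 active = mean at 75% or more and at least half the replicates too; tested in HMLE shEcad cells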;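 note: 0% = median of negative and 100% = median of positive control wells; the first replicate is given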
Rce1 inhib: yeast Rce1p protease inhibitors, primary screen, biochemical, fluorescence, cell-free homogeneous; CAAX prenyl protease 2 (Saccharomyces cerevisiae (strain ATCC 204508 / S288c)), Q03530; AID 2563, 2010; 290,000 compounds, 0.27% hits; yeast membranes, quenched prenylated peptide cleavage fluorescence; calls only;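 active = fall in fluorescence gain of 50% or more versus controls, with final raw signal at or below 3038400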;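 note: plate controls were neutral control wells for no effect and wells lacking membranes for full effect; tested at 10 µM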
Target sequence (Q03530 whole entry, looked up): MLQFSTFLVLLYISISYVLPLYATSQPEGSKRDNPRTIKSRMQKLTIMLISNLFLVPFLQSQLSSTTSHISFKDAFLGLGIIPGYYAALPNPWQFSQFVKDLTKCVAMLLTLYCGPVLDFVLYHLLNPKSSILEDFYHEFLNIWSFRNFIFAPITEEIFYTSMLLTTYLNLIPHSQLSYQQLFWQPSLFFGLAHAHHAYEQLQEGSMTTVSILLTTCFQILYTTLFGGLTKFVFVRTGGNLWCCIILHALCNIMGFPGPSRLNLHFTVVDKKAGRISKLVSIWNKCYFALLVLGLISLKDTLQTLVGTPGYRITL
UUG fidelity: modulators of yeast start codon fidelity, primary screen, whole organism, S. cerevisiae, single point, plate reader; S. cerevisiae UUG-firefly luciferase reporter, luminescence/redox ratio; activity score, % at 18.7 µM; 350,000 compounds, 0.13% hits;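 active = replicate mean at a twofold rise or more, about +100% in these data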;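 note: firefly luciferase made from a UUG start codon reports start codon fidelity; reporter light over untreated wells divided by growth signal over untreated wells; some hits fall short of that in this replicate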
eIF4H inh: human eIF4H binding inhibitors, primary screen, translation initiation inhibitor project, biochemical, uHTS, fluorescence polarization; AID 2012, 2009; eIF4H fluorescence polarization binding assay; Eukaryotic translation initiation factor 4H (Homo sapiens), Q15056; inhibition, % at 35 µM; 290,000 compounds, 0.94% hits;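 active = 50% or more with normal probe brightness, or confirmed in later tests; about a fifth of its hits are not listed in these tables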;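 note: calls also rest on retests at 20 µM and on dose response follow-up; 0% = protein and probe with vehicle and 100% = probe without protein; strong numbers were not always called active; many hits fall short of the cut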
eIF4H inh retest: further read-out of eIF4H inh, marked with its call; inhibition, %; compound at 20 µM; confirmation average;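 mean of two retest wells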
PABP FP inh retest: also measured in PABP FP inh; calls as there; inhibition, %; compound at 20 µM; confirmation repeats;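 mean of two retest wells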
MT1-MMP act inh RFP: second read-out of MT1-MMP act inh, no call of its own (marks repeat the call); RFP signal change, %; measured here: RFP expression control read;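 0 = vehicle wells; hits needed this value within 50% of zero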
The depositor's hits bear a star; i = inactive; . = not tested or not shown. Compounds as they come; any-hit rate near 3%.

A first look, three compounds:
SMILES	HIV Env fusion	MT1-MMP act inh	MT1-MMP act inh RFP	PABP FP inh	CSC inhib	Rce1 inhib	UUG fidelity	eIF4H inh	others
CC1CCN(C(=O)CCC(=O)Nc2ccc([N+](=O)[O-])cc2)CC1	8	-6	-5	.	.	.	-10	.
CCOC(=O)C1=C(C)N(CCCC(=O)O)C(=O)NC1c1cccc(OC)c1 (stereo unspecified)	-2	.	.	.	-4	i	.	.
COc1ccc(CCc2nc(-c3ccc(-n4cccc4)cc3)no2)cc1	-6	-5	-14	2	11	i	-5	10

The listing, previewed entries included:
SMILES	HIV Env fusion	MT1-MMP act inh	MT1-MMP act inh RFP	PABP FP inh	CSC inhib	Rce1 inhib	UUG fidelity	eIF4H inh	others
CC1CCN(C(=O)CCC(=O)Nc2ccc([N+](=O)[O-])cc2)CC1	8	-6	-5	.	.	.	-10	.
CCOC(=O)C1=C(C)N(CCCC(=O)O)C(=O)NC1c1cccc(OC)c1 (stereo unspecified)	-2	.	.	.	-4	i	.	.
COc1ccc(CCc2nc(-c3ccc(-n4cccc4)cc3)no2)cc1	-6	-5	-14	2	11	i	-5	10
Cc1ccc(NNC(=O)c2snnc2C)cc1Cl	-10	1	5	-3	-4	i	.	-5
O=C(O)c1cccc(S(=O)(=O)Nc2ccc(-c3ccccc3)cc2)c1	-27	1	2	.	-11	.	-11	.
Cc1c(C(=O)N2CCN(Cc3ccccc3)CC2)oc2c1C(=O)CC(C)(C)C2	4	-3	0	.	33	i	-11	.
CC(C)NC(=O)CSc1nc2ccccc2c(=O)n1CCCOC(C)C	.	7	0	-5	2	i	0	0
CCN(CC(=O)Nc1ccc2c(c1)OCCO2)C(=O)CC1CCCC1	-1	3	3	4	12	i	-21	-10
CCCN(CC(=O)Nc1ccccc1OC)C(=O)CNC(=O)c1ccc(C)s1	-11	3	-1	.	.	.	-19	.
CCOC(=O)C1=C(C)C(c2ccccc2)NC(=S)N1 (stereo unspecified)	-3	-5	1	9	5	i	-15	4
Cc1cc(C)c(C)c(Cn2c(CO)nc3ccccc32)c1C	.	-11	-8	-10	7	i	-22	-2
O=C(O)CCC(=O)NNC(=O)CCC(=O)Nc1ccccc1	13	6	3	4	-9	i	.	-3
C/C(=N\NC(=O)c1ccccc1O)C1CC1	-2	-10	-5	2	-3	i	-7	0
CC(C)N(Cc1cc2ccccc2[nH]c1=O)C(=O)C(C)(C)C	.	0	-1	-1	-2	i	-5	-9
COC(=O)c1ccc(-c2noc(CN(C)CCC3CCCCO3)n2)cc1 (stereo unspecified)	10	1	3	2	0	i	.	-6
CC(C)c1ccc(/C=C(\NC(=O)c2ccccc2)C(=O)NCCCN2CCOCC2)cc1	14	6	0	0	6	i	-6	-1
COc1ccc(CCNC(=O)CSc2nnc(CNC(=O)c3ccccc3F)o2)cc1OC	.	-3	5	-5	12	i	-14	-4
CCOC(=O)Cc1csc(SCC(=O)N2CCN(c3ccccc3)CC2)n1	-7	2	-6	.	-18	.	5	.
CNc1nc2c(C)cccn2c(=O)c1C=Nc1ccc(OC)cc1	-20	3	6	-4	1	i	.	8
O=C(Cc1c(O)c2ccccc2[nH]c1=O)N(Cc1ccccc1)Cc1ccccc1	-37	4	2	-3	4	i	.	-3
CCCn1c(N2CCN(CC(=O)c3c[nH]c4ccccc34)CC2)nc2c1c(=O)[nH]c(=O)n2C	.	-5	-13	26	11	i	-10	7
CC(=O)Nc1cccc(NC(=O)CSc2nnc3ccc(-c4ccccn4)nn23)c1	-45	4	-1	.	-5	i	-18	.
COCc1cccc(-c2csc(C(O)c3ccc(F)cc3)n2)c1 (stereo unspecified)	-13	0	-10	.	.	.	-18	.
COCCN1C(=O)C(=O)/C(=C(/O)c2ccc(S(=O)(=O)N3CCCCC3)cc2)C1c1ccc(OC)cc1 (stereo unspecified)	3	2	4	2	-3	i	-12	-9
COc1ccc(NC(=O)CCNS(=O)(=O)c2ccc3c(c2)CCC(=O)N3)cc1	8	0	1	5	9	i	12	-1
O=C(Nc1cccc(S(=O)(=O)N2CCCCCC2)c1)c1cc(=O)c2ccccc2o1	12	0	-19	6	7	.	.	-8
CCN(CC)C(=O)N1c2ccccc2C=Cc2ccccc21	.	1	-12	13	43	i	.	-4
CCCCOC(=O)c1cc(=O)[nH]c(=O)[nH]1	.	2	7	61*	-8	i	-19	-4	eIF4H inh retest=0;PABP FP inh retest=101*
Cc1c(-c2ccc(F)cc2)nc(N)c(C#N)c1-c1cccs1	-82	2	-5	-7	-4	i	.	94	eIF4H inh retest=-5;PABP FP inh retest=11
Cc1ccccc1Nc1nc(N)nc(COC(=O)[C@@H](NC(=O)c2c(F)cccc2F)C(C)C)n1	.	-4	2	.	-1	i	-10	.
Cc1csc(SCC(=O)Nc2nc3ccccc3s2)n1	.	0	-5	-8	1	i	-22	7
Cc1cccc(C(=O)OCC(=O)NCc2ccc3c(c2)OCO3)c1C	.	-4	0	.	24	.	-23	.
CC(C)CN1CCNC(=O)C1CC(=O)NCCc1ccc(C(F)(F)F)cc1 (stereo unspecified)	5	-5	-1	-10	-13	i	.	1
Cc1c(NC(NC(=O)CC(C)C)C(Cl)(Cl)Cl)c(=O)n(-c2ccccc2)n1C (stereo unspecified)	-8	-4	0	-17	-1	i	.	5
COc1ccc2c(c1)[C@H]1[C@H](CO2)[C@H](c2ccccc2)[C@]2(C)C(=O)Nc3cc(C)ccc3C(=O)N12	.	-8	-2	.	23	.	-9	.
COC(=O)c1cc(-c2c(C)nn(-c3ccccc3)c2C)n[nH]1	.	1	0	7	-4	i	-11	-10
O=C(O)CCC(=O)NNc1ccccc1[N+](=O)[O-]	16	0	2	3	-5	i	8	12
CC(=O)Nc1ccc(Nc2nc(C)nc3c2oc2ccccc23)cc1	-45	6	-11	-8	-9	i	8	0
COc1ccc(CN2CC(C(=O)NCCC3=CCCCC3)CC2=O)cc1 (stereo unspecified)	.	-3	0	-7	2	i	1	1
CN(Cc1nnc(-c2ccc(F)cc2)o1)c1ccccc1	-7	-1	3	-3	-8	i	-1	7
COC12NC(=O)N(C)C1(OC)C(=O)N(C)C(=O)N2C (stereo unspecified)	.	0	2	-2	-17	i	.	0
Cc1ccc(NC(=O)c2ccco2)c(NC(=O)c2cccs2)c1	.	1	0	3	-7	i	-18	-4
O=C(NCCCN1CCOCC1)c1ccc2c(c1)N(Cc1ccc(Cl)cc1)C(=O)c1ccccc1S2=O (stereo unspecified)	10	0	2	7	2	i	-9	-5
COc1ccc(C(=O)Nc2ccccc2C(=O)Nc2ccncc2)cc1	-32	-13	-4	-4	-7	i	10	-14
Cn1c(SCCC#N)nnc1-c1ccc(F)cc1	.	2	2	13	-10	i	.	2
C[C@]12CC[C@@H]3c4ccc(O)cc4CC[C@H]3[C@@H]1CC[C@@H]2OC(=O)CCC1CCCC1	-13	1	-3	.	22	i	2	.
O=C1C(=O)c2ccccc2C(O)=C1c1ccccc1F	6	6	5	-10	4	i	37	-11
CCCSc1nc2c(c(=O)[nH]c(=O)n2C)n1Cc1ccc(C)cc1	-5	1	-5	2	6	i	40	-2
NC(=O)c1ccc(C23CC4CC(CC(C4)C2)C3)o1	.	-3	1	1	.	i	.	-10
CCOc1cccc(-c2nn3c(-c4ccco4)nnc3s2)c1	-237	4	0	-5	-10	i	-7	-8
CCOC(=O)c1csc(NC(=O)c2ccc(S(=O)(=O)N(C)C)cc2)n1	.	-3	-9	0	-4	i	7	5
OCC1OC(c2ccc(OCc3ccccc3)cc2OCc2ccccc2)C(O)C1O (stereo unspecified)	9	-2	0	.	.	.	20	.
O=c1cc(N2CCCCC2)c(-c2ccccc2)nn1Cc1ccccc1	-8	-6	-6	2	105*	i	.	-7
Cc1cccc(NC(c2ccc(O)cc2)c2ccc3ccc(C)nc3c2O)n1 (stereo unspecified)	-80	2	9	0	25	i	-7	9
Cc1nc(SCCc2ccccc2)[nH]c(=O)c1C	.	4	1	12	-2	i	-11	12
O=C(COc1cc(Cl)c(Cl)cc1Cl)N1CCN(c2ccccn2)CC1	6	1	1	14	.	i	.	-8
COC(=O)c1ccc(C(=O)OCCCc2nc3ccc(N)cc3[nH]2)cc1	.	5	-1	-7	-18	.	-14	-5
O=C1CC(N2CCN(Cc3ccc4c(c3)OCO4)CC2)C(=O)N1c1ccccc1 (stereo unspecified)	.	1	5	0	-10	i	-15	-4
Cn1c(=O)c2cc(NC(=O)NCCc3cccs3)ccc2n1Cc1ccccc1	11	-1	-7	.	.	.	-12	.
COc1ccc(/C=C/C(=O)NC(=S)Nc2ccc(S(=O)(=O)Nc3cc(OC)ncn3)cc2)cc1	11	-2	2	-6	.	.	.	-6

(cont.)
SMILES	HIV Env fusion	MT1-MMP act inh	MT1-MMP act inh RFP	PABP FP inh	CSC inhib	Rce1 inhib	UUG fidelity	eIF4H inh	others
O=C1c2ccccc2S(=O)(=O)N1Cc1nnc(-c2ccccc2Br)o1	.	0	1	3	.	i	-17	-1
O=C(OCC(=O)N1CCOCC1)c1cc(=O)[nH]c2ccccc12	-6	-4	0	.	-11	.	-10	.
CCCS(=O)(=O)NC(=O)C1(C)CCN(C(=O)CSc2ccccc2)C1 (stereo unspecified)	-16	2	1	.	.	.	-8	.
N#Cc1ccc(C(=O)N2CCCCC2c2cc(C(=O)Nc3ccc4c(c3)OCO4)no2)cc1 (stereo unspecified)	-22	-3	-3	.	.	.	-4	.
COC(=O)C1=C(O)C2(C(=O)O)CC(C(=O)OC)=C(O)C(C(=O)O)(C1)C2	-15	-2	6	-1	-3	i	.	-4
CS(=O)(=O)N(CC(=O)N1CCOCC1)Cc1ccccc1	-29	-1	-3	-6	-12	i	-12	-10
CN(C(=O)CC1C(=O)NCCN1Cc1cccc(C(F)(F)F)c1)C1CCOCC1 (stereo unspecified)	47	-4	2	15	-3	i	-25	8
Cc1c(CC(=O)O)c(=O)oc2cc3occ(-c4ccc(F)cc4)c3cc12	-15	1	3	7	-3	i	-20	0
CN(C)C(=O)c1nc(C#N)c(N(C)C)o1	.	0	-3	3	-23	i	.	-10
O=C(CCC1CCN(Cc2ccc(Cl)cc2)CC1)NC1CC1	-7	-1	2	-12	39	i	-12	0
COc1ccc(N2CCN(C(=O)c3cc4c(=O)n(Cc5ccccc5)ccc4nc3C)CC2)cc1	0	-2	-3	4	-4	i	2	-8
CCc1ccc2[nH]c(C(=O)N(C)c3ccc(F)cc3F)cc2c1	18	1	-5	-8	-8	i	-12	7
CCC(C)NC(=O)c1cn(CC)c2cc(N3CCN(C)CC3)c(F)cc2c1=O (stereo unspecified)	-12	-3	-2	8	29	i	12	1
COc1ccccc1N1CCN(c2cc(=O)n(-c3ccc(Br)cc3)c(=O)[nH]2)CC1	-33	-1	-2	-5	1	.	-18	0
O=C(Nc1cnn(Cc2ccc(Cl)cc2)c1)c1cccs1	9	0	-4	1	15	i	.	-4
Cc1cccc(NC(=S)NCc2cccs2)c1C	-47	7	4	4	-6	i	-12	-12
O=C1CC(C(=O)N2CCN(c3ccc(F)cc3)CC2)CN1CCc1ccccc1 (stereo unspecified)	11	2	6	-5	-13	i	-2	-6
Cc1ccccc1-n1ncc2c(SCC(=O)NC3CCCC3)ncnc21	11	0	-28	12	2	i	-20	15
